HCMV NEC inh: cytomegalovirus nuclear egress complex inhibition; inhibition, % (test concentration not listed); HTRF UL50-UL53 interaction, normalized percent inhibition; actives 0.15% (n = 190,000);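 active = both replicates at 50% or more, plus weaker picks with an unusually low signal ratio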;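 also: stock transfer was 100 nL into about 20 µL; 0% = negative control wells and 100% = wells with untagged competitor protein; inactives centre near -12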
* = called active by the depositor; & = joins results of further samples. An excerpt; rates above refer to the full screens.

SMILES	HCMV NEC inh
Cc1ccc(S(=O)(=O)c2cn[nH]c2-c2ccc(Cl)cc2)cc1	-13.2
CCc1cc2c(=O)c(-c3nc4ccccc4n3C)c(C(F)(F)F)oc2cc1O	-15.8
O=C1CCCN2N=C(SCC(=O)NCCc3ccccc3)SC2=N1	-16.4
CCCCCCCC/C=C\CCCCCCCC(=O)N[C@@H](CO)C(=O)O	5.0&5.0
CCC(=O)Nc1ccc(-c2csc(-c3ccccc3)n2)cc1	-15.3
CN(C1CCCCC1)S(=O)(=O)c1ccc(C(=O)Nc2sccc2C#N)cc1	-13.4
CCCCCCCCCCCCCCCC(=O)N[C@H](CN1CCOCC1)[C@H](O)c1ccccc1	5.3
C[C@@H](C(=O)O)c1ccc(-c2ccccc2)c(F)c1	-17.2&-17.2
Nc1c(CC(=O)O)cccc1C(=O)c1ccc(Br)cc1	-33.5
COC(=O)C1=C(C)NC(C)=C(C(=O)OC)C1c1cccs1	4.3
Cc1sc2ncn3nnnc3c2c1-c1ccccc1	-8.8&-4.0
Cc1cc(O)c(-c2[nH]ncc2-c2nc(C)cs2)c(O)c1	-17.5
O=C1NC(=S)S/C1=C\c1ccccc1C(F)(F)F	-15.4
CCCCCCCCCSCCCCCCCC(=O)O	-30.8&-30.8
COc1cccc(C(=O)Nc2nnc(SCc3ccccc3)s2)c1	-8.1
O=C(CSc1nnc(-c2ccccc2)o1)Nc1nccs1	4.0
N#Cc1c(SCc2ccccc2)nc2sccn12	-10.7
CC1CCN(S(=O)(=O)c2ccc(NC(=O)/C=C/c3ccco3)cc2)CC1	-2.3
Cc1ccc(C(C)CCN2CCC3(CC2)C(=O)N(C(C)C)C(=O)N3CCC(C)C)o1 (configuration not stated)	-13.1
C[C@H](CCC(=O)NCC(=O)O)[C@H]1CC[C@H]2[C@@H]3[C@H](O)C[C@@H]4C[C@H](O)CC[C@]4(C)[C@H]3C[C@H](O)[C@]12C	-14.3
Cc1nnc(SCC(=O)O)n1/N=C/c1ccccc1	-4.5
COc1cccc(-n2ccnc2SCC(=O)Nc2nccs2)c1	-17.7
CCN(CC)S(=O)(=O)c1ccc(C(=O)Nc2nc(-c3ccccc3)cs2)cc1	-17.2
O=c1oc2ccc(Br)cc2cc1-c1nnc(-c2ccncc2)o1	-26.3
C=CCN1C(=O)c2oc3ccccc3c(=O)c2C1c1ccc(OC)cc1 (configuration not stated)	0.9

(further entries)
SMILES	HCMV NEC inh
CNC(C)C(=O)NC(C(=O)N1CCCC1C(=O)Nc1snnc1-c1ccccc1)C1CCCCC1 (configuration not stated)	-15.4
O=C(CCC1CC1)Nc1ccnn1C1CCCCC1	-16.7
COc1ccc(CN2CCN(c3ncnc4sccc34)CC2=O)cc1	38.8&38.8
CSCCC(C(=O)O)N1C(=O)CSC1=S (configuration not stated)	-14.6
CCOc1ccccc1NC(=O)c1cc(=O)c2ccccc2o1	13.8
CC(=O)N(OCc1ccccc1)[C@@H]1c2cc(C#N)ccc2OC(C)(C)[C@H]1O	-5.4
c1ccc(CN2CCC3(CCc4ccccc43)CC2)cc1	5.5
Cc1sc[n+](CC(=O)c2ccc(Br)cc2)c1C	-10.6
O=C(CSCc1ccco1)Nc1cc(C(F)(F)F)ccc1Cl	-7.6
CC(=O)N/C(=C\c1ccccc1)C(=O)NCC1CCCO1 (configuration not stated)	-8.7
Cc1ccc(C(=O)Cn2cncn2)cc1	-25.4
Cc1cc(OCC(O)CN2CCCCC2C)cc(C)c1Cl (configuration not stated)	-6.3
CCOC(=O)c1cc(C)nc(N2CCCC(c3nc(C(C)C)no3)C2)n1 (configuration not stated)	-3.6
C=CC(=O)N1CCCC(Nc2nc(Nc3ccc(N(C)C(=O)CC)cc3C)nc3nc[nH]c23)C1 (configuration not stated)	-10.5
COc1ccc(CCCOC(Cn2ccnc2)c2ccc(OC)cc2)cc1 (configuration not stated)	-9.2&-12.4&-12.4&-6.9
COCc1c(C(C)C)nc(C(C)C)c(C=CC(O)CC(O)CC(=O)O)c1-c1ccc(F)cc1 (configuration not stated)	-94.1
O/N=C/c1ccc(-c2cc(Cl)ccc2Cl)o1	-20.5
O=C(NC(C(=O)O)c1ccccc1)c1ccccc1 (configuration not stated)	-5.7
CCC1(CC)CC1C(=O)N1CCC(n2cc(C(C)(C)O)nn2)CC1 (configuration not stated)	-1.4
C=CCn1c(CCCNC(=O)C(C)(C)C)nc2ccccc21	4.4
CC(SC1=NCCN1S(=O)(=O)c1ccccc1)c1ccccc1 (configuration not stated)	-5.2
CNC(=O)CSc1cnc2ccccc2n1	-2.5
CN(C)c1sc(C#N)cc1-c1ccccc1	-5.8
O=c1oc2ccccc2cc1-c1csc(Nc2ccc(F)cc2)n1	-13.3
CC(=O)Oc1cc2c(s1)CCN([C@H](C(=O)C1CC1)c1ccccc1F)C2	-62.5

An excerpt from above in order of molecular weight, ascending.
SMILES	HCMV NEC inh
Cc1ccc(C(=O)Cn2cncn2)cc1	-25.4
CCOc1ccccc1NC(=O)c1cc(=O)c2ccccc2o1	13.8
CC(=O)Oc1cc2c(s1)CCN([C@H](C(=O)C1CC1)c1ccccc1F)C2	-62.5

The list goes on.
SMILES	HCMV NEC inh
CC1CN(c2oc(-c3ccccc3F)nc2C#N)CC(C)O1 (configuration not stated)	2.2
CCCCCCCCCC(=O)CC(=O)N[C@H]1CCOC1=O	-26.1&-26.1
CC1(C)CC(=O)c2sc(NC(=O)c3ccc(F)cc3)nc2C1	-8.8
CN1CCN(c2oc(-c3ccccc3F)nc2C#N)CC1	-5.5
CCn1c(C2CC(=O)N(Cc3ccccc3)C2)nc2ccccc21 (configuration not stated)	-11.2
CN(C)Cc1c(O)ccc2c(-c3ccccc3)cc(=O)oc12	-92.5
Cc1ccc(NS(=O)(=O)c2ccccc2)c(C(=O)O)c1	-22.0
Cc1ccc(-c2nc3ccc(N4CCCC4)cc3c(=O)[nH]2)cc1	1.8
Cc1ccc([N+](=O)[O-])cc1S(=O)(=O)N(C)N=Cc1c[nH]c2ccc(Br)c[n+]12	-28.4
CCc1ccc(OCC(O)CNC(C)(C)C)cc1 (configuration not stated)	-15.3
Cc1ccc(NC2OC(=O)c3ccccc32)cc1C (configuration not stated)	-8.5
COC(=O)c1c(NC(=O)c2ccc(OC)cc2)sc2c1CCN(C(C)C)C2	-24.1
COc1ccc(S(=O)(=O)N(C)C2CCCCC2)cc1C	-2.4
Cc1ccn2cc(C(=O)N3CCc4c(cc(-c5ccc(OC(F)(F)F)cc5)c(=O)n4C)C3)nc2c1	-4.1
CCN1CCN(Cc2ccc(NC(=O)c3cc(NC(=O)c4ccno4)cc(OC)c3)cc2C(F)(F)F)CC1	-9.7
CC(C)(C#N)c1ccc(N2C(=O)OCc3cnc4ccc(-c5cnc6ccccc6c5)cc4c32)cc1	-1.9
CCCc1oc(CCC(=O)O)c(C(=O)O)c1C	-28.4&-28.4
COC(=O)CCN1CC(OCc2ccncc2)CN(C(=O)c2csc(SC)n2)CC1=O (configuration not stated)	-11.9
COc1ccc(CN2CCN(C(=O)c3ccccc3F)CC2)cc1OC	-16.2
O=C(CSc1nc2ccccc2s1)N1CCN(CCO)CC1	-0.2
O=C(O)c1ccccc1C(=O)Nc1ccccc1F	-10.0
COc1cc(/C=C2/SC(=Nc3cccc(Cl)c3Cl)NC2=O)cc(OC)c1OC	-24.1&4.4
CC1CCc2c(sc3ncn(Cc4noc(C(C)C)n4)c(=O)c23)C1 (configuration not stated)	-4.8
NC(=O)CCS(=O)(=O)CCN1CCCCC1	3.3
NC(CCO)c1cccc(Cl)c1 (configuration not stated)	-11.5

Rewritten as labelled records: part of the list above.
> CN(C)Cc1c(O)ccc2c(-c3ccccc3)cc(=O)oc12
- HCMV NEC inh: -92.5
> CC1(C)CC(=O)c2sc(NC(=O)c3ccc(F)cc3)nc2C1
- HCMV NEC inh: -8.8
> COC(=O)c1c(NC(=O)c2ccc(OC)cc2)sc2c1CCN(C(C)C)C2
- HCMV NEC inh: -24.1
> Cc1ccc(-c2nc3ccc(N4CCCC4)cc3c(=O)[nH]2)cc1
- HCMV NEC inh: 1.8

Following part
SMILES	HCMV NEC inh
COc1ccc(CNC(=O)c2oc3ccccc3c2-n2cccc2)cc1	-5.2
CCCCC[C@H](O)CC[C@H]1[C@H](O)CC(=O)[C@@H]1CCCCCCC(=O)O	-4.8&-4.8&-10.5
CC(C)CC(NC(=O)CNC(=O)c1cc(Cl)ccc1Cl)B(O)O (configuration not stated)	-3.9
Cc1ccc2nc(NC(=O)C3CCCCC3)sc2c1	-10.9
O=C(N/C(=C\c1ccc(-c2ccccc2)o1)C(=O)N1CCOCC1)c1ccccc1	-25.0
O=C(NCCSc1c[nH]c2ccccc12)c1ccc2c(c1)OCO2	-10.8
COC(=O)c1c(N2C(=O)C=CC2=O)sc2c1CCC(C)C2 (configuration not stated)	-0.7
Cc1ccc(NC(=O)CC(C(=O)O)N2CCN(C)CC2)cc1Cl (configuration not stated)	2.5
CNC(=O)/C=C/c1cccc(C(F)(F)F)c1	-11.7
O=C(CSc1ccc(Cl)cc1)N1CCCc2ccccc21	-1.5
COc1ccc(CN2CCN(c3nccc(-c4c(C)nn(C)c4C)n3)CC2=O)cc1	-12.9
COc1ccccc1C1CC(=O)NC(SCC(N)=O)=C1C#N (configuration not stated)	2.8
O=C(Nc1cccc(C(F)(F)F)c1)c1ccc(Br)o1	-17.9
CC1CCCN(Cn2cnc3ccccc32)C1 (configuration not stated)	-59.2
Cc1cc(C)c(C#N)c(OCc2cccc(C(F)(F)F)c2)n1	-0.2
N#CC(c1ccco1)N1CCN(C(=O)c2ccccc2)CC1 (configuration not stated)	3.5
NC(=O)c1ccc(I)c([N+](=O)[O-])c1	-114.8
CCOc1ccc(/C=C2/C(=O)Nc3ccccc32)cc1	10.2
CCn1ncc2[nH]c(-c3ccc(-c4ccccn4)cc3)nc21	-46.5
COc1cc(/C=C2/SC(=S)N(c3ccc4ccccc4c3)C2=O)ccc1O	-0.1
O=C(Nc1cccc(-c2nc3ccccc3[nH]2)c1)C1=COCCO1	-2.7
CN1CCN(S(=O)(=O)N(C)C)CC1	-10.4
CCOC(=O)c1c(NC(=O)CCN2CCOCC2)sc(C)c1-c1ccccc1	9.8&-4.2
COc1ccc(CN2C[C@@H](CN3CCOCC3)C[C@@H](C(=O)NCC3CCCO3)C2)cc1OC (some centres not stated)	-9.6
CCCCC[C@H](O)/C=C/[C@H]1[C@H](O)CC(=O)[C@H]1CCCCCCC(=O)O	0.9&0.9

Exported as labelled records: four of the compounds above
SMILES: COc1ccc(CN2C[C@@H](CN3CCOCC3)C[C@@H](C(=O)NCC3CCCO3)C2)cc1OC (some centres not stated)
- HCMV NEC inh: -9.6
SMILES: CC1CCCN(Cn2cnc3ccccc32)C1 (configuration not stated)
- HCMV NEC inh: -59.2
SMILES: CCn1ncc2[nH]c(-c3ccc(-c4ccccn4)cc3)nc21
- HCMV NEC inh: -46.5
SMILES: Cc1ccc(NC(=O)CC(C(=O)O)N2CCN(C)CC2)cc1Cl (configuration not stated)
- HCMV NEC inh: 2.5

Continuation:
SMILES	HCMV NEC inh
CCCCC/C=C\CC1OC1C/C=C\C/C=C\CCCC(=O)O (configuration not stated)	-2.5
CC(Oc1ccc(O)cc1)(P(=O)(O)O)P(=O)(O)O	1.6
COc1ccc(NC(=O)CSC2=NCCN2)cc1	-13.6
CCC(=O)Nc1cccc(-c2cn3ccccc3n2)c1	-7.4
COCCn1cnc2cc(C)c(C)cc21	-3.5
CC(=O)Oc1cccc(N2Cc3ccccc3C2=O)c1	4.0
CCOc1ccc2oc(-c3cc(Br)cc4c3OCOC4)c(N)c(=O)c2c1	-26.0
COc1ccc(C(=O)Nc2nc3c(s2)CC(C)CC3)cc1 (configuration not stated)	-11.2
COc1ccc(Nc2nc3ccccc3[nH]2)cc1	-20.8
CCOC(=O)N1CCC(NC(=O)CN2C(=O)C(CC)Oc3ccc(C)cc32)CC1 (configuration not stated)	-10.6
OCCCCCNCC1(N2CCOCC2)CCCCCC1	-23.9
c1ccc(-c2n[nH]c3c2oc2ccccc23)cc1	-26.5&-5.6
CSc1nnc(CNC(=O)c2cccs2)n1-c1cccc(Cl)c1	-15.5
CC(C)(C)C(=O)Nc1ccccn1	-6.3
Cc1nsc(NC(=O)N2CCC(C(=O)N3CCCC3)CC2)n1	-18.5
COc1cc(NC(=O)c2ccno2)cc(C(=O)Nc2cccc(C(F)(F)F)c2)c1	-11.4
CC(C)CC(=O)NC(C)C(c1cccs1)N1CCN(c2ccccc2)CC1 (configuration not stated)	-7.5
CCN(CC)C(=O)c1sc2nc3c(cc2c1N)C(=O)CC(C)(C)C3	-12.8
Cc1ccccc1Nc1ncnc2nc[nH]c12	-14.0
CC(C)CCCC(C)CCCC(C)CCCC(C)CC(=O)O (configuration not stated)	-9.6&-9.6
Cc1nn(C)c(C)c1-c1ccnc(N(C)Cc2cnn(C(C)C)c2)n1	-0.9
CCSC1=C(C#N)C(c2ccc(OCc3ccccc3)cc2)C2=C(CCCC2=O)N1 (configuration not stated)	1.0
Cc1ccc(S(=O)(=O)NCc2ccco2)c(C)c1C	-10.5
O=C1Nc2ccccc2S/C1=C/Nc1ccc(Cl)cc1	-10.7
CCOc1ccc2nc3cc(N)ccc3c(N)c2c1	-47.5&-99.6

(more compounds)
SMILES	HCMV NEC inh
O=C1OC(CN2CCOCC2)CN1/N=C/c1ccc([N+](=O)[O-])o1 (configuration not stated)	-129.5
O=S(=O)(c1cccs1)N1CCN(c2cccc(Cl)c2)CC1	-6.0
CC(C)CC[C@@H](O)[C@@H](C)C1CCC2C3CC=C4C[C@@H](O)CC[C@]4(C)C3CC[C@@]21C (some centres not stated)	-2.1&-2.1
CC(=O)Nc1nc(Br)sc1Cc1ccc(C)cc1	-8.2
O=C(O)CNC(=O)COc1cccc2ccccc12	-16.4
CCSc1nc2c([nH]c3ccccc32)c(=O)n1-c1ccccc1	9.5
CC1(C)CC(=O)c2sc(N3CCOCC3)nc2C1	-25.1
CN(C)CCc1c[nH]c2ccc(CC3COC(=O)N3)cc12 (configuration not stated)	-13.7&-62.6
CCCCc1ccc(-c2csc(N)n2)cc1	10.0
O=C(Nc1ccccc1Cl)c1ccccc1	0.9
CC(=O)c1cc([N+](=O)[O-])c(Sc2cccc(Cl)c2Cl)s1	-91.8
Cc1cc(C)n(CC(C)n2cnc3sc4c(c3c2=O)CCCCC4)n1 (configuration not stated)	-26.8

Screens: PubChem BioAssay, ICCB-Longwood Screening Facility, Harvard Medical School
